# High-throughput results as filed in PubChem BioAssay.
# Calb biofilm kill: clotrimazole potentiators killing C. albicans biofilm, primary screen, 4-compound mixtures | C. albicans biofilm persisters + clotrimazole, fluorescence viability; primary screen in compound mixtures of four per well | inhibition, % at 7.6 µM | 120,000 tested, 0.02% active;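 active = inhibition above 30.3% in the primary screen of four-compound pools, then above 30% when the compound was retested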;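 note: compounds exposed to preformed 24 h biofilms for 48 h; the number belongs to the whole pool; some results filed as inactive read as strong as hits; inactives centre near 12; 0% = biofilm with clotrimazole alone and 100% = kill control; retested singly at about 60 µM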
#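 Assay system: C. albicans biofilms / Medium: RPMI/MOPS medium, pH 7.0 / Schedule: biofilm formation 24 h, compound exposure 48 h, 37 °C / Measured by: Alamar Blue fluorescence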
# * = called active by the depositor.
entry	molecule	Calb biofilm kill
1	Cc1nnc(SCc2ccc(Cl)c(Cl)c2)s1	-2
2	CC(C)(C)c1nnc(N/N=C/c2ccc(O)cc2)n(N)c1=O	17
3	COc1ccc(NS(=O)(=O)c2cn(C)cn2)cc1	14
4	CC(C)(C)c1cc(C(=O)NCC(=O)OCC(=O)c2cccc([N+](=O)[O-])c2)cc(C(C)(C)C)c1	-5
5	CCCn1c2c(c(=N)c3c1CCC3)CCCC2	8
6	CCOC(=O)c1cccc(NC(=O)CCOc2ccccc2)c1	11
7	CC1CCN(C(=O)COc2ccc(Nc3ccccc3)cc2)CC1	11
8	Oc1ccc(N=Nc2cccc(Cl)c2)cc1C=Nc1ccc(N2CCOCC2)cc1	19
9	CCOC(=O)c1cnc(C(F)(F)F)nc1Oc1ccccc1	14
10	COC(=O)c1ccc(COc2ccc(NC(C)=O)cc2)o1	9
11	CC1CN(c2ccc(NS(=O)(=O)c3ccccc3)cc2C(=O)O)CC(C)O1 (stereo unspecified)	26
12	COc1ccc(NC(=S)N/N=C/c2cccn2Cc2ccc(F)cc2)cc1	-1
13	CN(C)S(=O)(=O)c1cccc(NC(=O)COc2nc3ccccc3nc2N2CCOCC2)c1	23
14	COc1ccc([N+](=O)[O-])cc1NC(=O)CCN1CCN(C)CC1	16
15	Nc1ccccc1N=c1ssnc1Cl	3
16	Cc1cc(C)c(NC(=O)c2ccccc2C(=O)c2ccccc2)c(C)c1	9
17	COc1cc(/C=N/NC(=O)c2cc(-c3c(C)nn(-c4ccccc4)c3C)n[nH]2)ccc1O	2
18	CC(=O)Nc1ccc(Oc2nc(-c3ccccn3)nc3ccccc23)cc1	22
19	COc1ccccc1NC(=O)Cn1c(=O)n(-c2ccccc2)c(=O)c2oc3ccccc3c21	18
20	O=C(CN1CCN(c2ccccc2O)CC1)NC(=O)NCc1ccco1	17
21	CCOC(=O)c1c(NC(=O)CN2C(=O)NC3(CCCCCC3)C2=O)sc(C)c1-c1ccc(C)cc1	15
22	CCOc1[nH]n(-c2ccccc2)c(=O)c1C=Nc1ccc(C(=O)OC)cc1	11
23	CC1(CO)COC(c2ccccc2)=N1 (stereo unspecified)	20
24	CC(=O)N1N=C(c2ccncc2)OC1(Cc1ccccc1)Cc1ccccc1	27
25	Cc1ccc(NC(=O)c2ccc(Cn3cc([N+](=O)[O-])cn3)cc2)c(C)c1	12
26	C(=N\Nc1ncnc2nc[nH]c12)/c1cccs1	11
27	COc1ccc(C2N(c3ccccc3)CCN2c2ccccc2)cc1O	8
28	O=c1oc2ccccc2nc1/C=C(\O)c1ccc(Br)cc1	29
29	O=C1N(c2ccccc2)C[C@@H]2C[C@@H](c3cc4ccccc4o3)N3CCC[C@@]123	0
30	O=C(NNS(=O)(=O)c1ccc(F)cc1)C1CCN(S(=O)(=O)c2ccccc2)CC1	17
31	O=C1CCN(S(=O)(=O)c2ccccc2)CCN1CCOCc1ccccc1	9
32	O=C(N/N=C\c1ccc(Cl)cc1)C1=NOC2COC3(CCN(c4ccc([N+](=O)[O-])cc4)CC3)OCC12 (stereo unspecified)	21
33	CCCC[n+]1ccn(C2=C([O-])c3ccccc3C(=O)/C2=N\S(=O)(=O)c2ccc(Br)cc2)c1	29
34	NC(=S)n1[nH]c(-c2ccccc2)c(N=Nc2ccccc2C(=O)N2CCOCC2)c1=O	28
35	CCOc1ccccc1C(C(=O)NC1CCCC1)N(Cc1ccco1)C(=O)CNC(=O)c1ccco1 (stereo unspecified)	-4
36	Cc1cccc(CN2CCN(CC(C)C)C(CCO)C2)n1 (stereo unspecified)	8
37	O=C(COC(=O)c1ccccc1-c1nc2ccccc2s1)Nc1ccccc1C(F)(F)F	7
38	COc1cccc(NC(=O)NC2CCN(Cc3nnnn3Cc3ccc4c(c3)OCO4)CC2)c1	-7
39	CC(=O)NCCNC(=O)c1ccc(Sc2ccccc2)c([N+](=O)[O-])c1	18
40	Cc1onc(-c2ccccc2)c1C(=O)NNC(=S)NC(=O)c1ccc(Br)cc1	12
41	Cc1ccsc1/C=C/C(=O)O	10
42	COc1ccc(NS(=O)(=O)c2ccc(C)cc2)c([N+](=O)[O-])c1	16
43	CCNC(=O)c1ccccc1SCC(=O)Nc1ccc(F)cc1	16
44	COc1cccc(/C=N/Nc2cc(C)nc(-c3ccccc3O)n2)c1O	1
45	Nc1cc(S(=O)(=O)Nc2cc(Cl)ccc2Cl)ccc1N1CCOCC1	9
46	O=C(CN1CCN(Cc2ccccc2Cl)C1=O)NCc1cccnc1	18
47	CCCNC(=O)c1nc(C)c(C)nc1C(=O)Nc1cccc(Cl)c1	16
48	CCOC(=O)C1CCN(c2ncnc3c2cnn3-c2ccc(Cl)cc2)CC1	18
49	C#Cc1ccc([C@@H]2C=C(C(=O)OCC=C)O[C@H](OCc3ccc(CO)cc3)C2)cc1	17
50	CC1CC(C)(C)NC(=S)N1CCCC(=O)Nc1ccccc1F (stereo unspecified)	14

# Later entries
entry	molecule	Calb biofilm kill
51	COc1cccc(NC(=O)Cn2c(=O)n(CCC(=O)NC3CCN(Cc4ccccc4)CC3)c(=O)c3ccccc32)c1	1
52	CC1CCC2(CC1)NC(=O)N(Cc1cc(=O)n3ccsc3n1)C2=O (stereo unspecified)	3
53	COc1ccc2[nH]c(=O)c(COC(=O)c3cccs3)cc2c1	16
54	COC(=O)c1cc(NC(=O)c2cccc(F)c2)cc(C(=O)OC)c1	-2
55	Cc1c(CCC(=O)O)c(=O)oc2cc3occ(C(C)(C)C)c3cc12	22
56	CCS(=O)(=O)c1ccc(O)c(NC(=O)CC2(CC(=O)O)CCCC2)c1	17
57	O=[N+]([O-])c1cccc(-c2nc3ccc([N+](=O)[O-])cc3[nH]2)c1	16
58	CC(C)NC[C@@H](O)c1ccc(O)c(O)c1	18
59	CC1CCC(C(C)C)C(OCC(O)CN2CCCC(C)C2)C1 (stereo unspecified)	18
60	O=C(O)C1CC=CCC1C(=O)NCCc1csc(-c2ccccc2)n1 (stereo unspecified)	11
61	Cc1ccccc1C(=O)N[C@H](C(=O)OCC(=O)c1ccc[nH]1)C(C)C	15
62	COc1cc(OC)c2c(OC)cccc2n1	15
63	O=C(Cn1nc2sc3ccccc3n2c(=O)c1=O)c1cccs1	7
64	Brc1ccc(OCc2nnnn2-c2ccccc2)cc1	24
65	Cc1ccc(NC(=O)c2ccc(OCc3c(C)noc3C)cc2)cc1	9
66	O=C1NC(=O)/C(=C\c2ccc(Oc3cnccn3)cc2)S1	1
67	CCOC(=O)N1CCN(C(=O)C(CC)c2ccccc2)CC1 (stereo unspecified)	12
68	C=CCN1c2ccccc2[C@]23C[C@@H](C(=O)OC)N(C(=O)c4ccco4)C2=NC(C(=O)OC)=C(C(=O)OC)[C@H]13	22
69	O=C(N/N=C/c1ccccc1[N+](=O)[O-])c1cccs1	32
70	Cc1cc(N2CCN(c3ccccc3)CC2)n2ncnc2n1	26
71	O=c1nc2n(c3cccc(Cl)c13)CCCCC2	10
72	CCOC(=O)/C(=C/C1=CC(=C/N(C)C)/C(=O)O1)C(C)=O	22
73	CCOC(=O)c1ccc(NC(=O)c2cccc(S(=O)(=O)N3c4ccccc4CC3C)c2)s1 (stereo unspecified)	17
74	CCNS(=O)(=O)c1ccc(NC(=O)c2ccccc2SCCOC)cc1	6
75	Cc1c(Cl)cnc(NC(=O)COC(=O)c2nn(C)c(=O)c3ccccc23)c1Cl	10
76	O=C(COC(=O)CNC(=O)c1ccc2c(c1)OCO2)Nc1ncc(Cl)cc1Cl	-10
77	COCCN(C(=S)Nc1ccccc1C)C(C)c1cccs1 (stereo unspecified)	15
78	S=C1Nc2cc(Cl)ccc2Sc2ccccc21	20
79	Cc1ccc(CNC(=O)CCS(=O)(=O)c2ccc(C)cc2)cc1	7
80	O=C(Cc1cccs1)Nc1cccc(-c2nc3cc4ccccc4cc3[nH]2)c1	20
81	CC(C)(C)c1nc2ccccc2c(=O)n1N1C(=O)c2ccccc2C1=O	15
82	O=C(NCc1ccco1)c1ccc(S(=O)(=O)N2CCCCC2)cc1	4
83	O=C(c1ccc(Cl)cc1)c1c[nH]c(C(=O)NNc2ccccc2)c1	9
84	Cc1cc(CNC(=O)Cn2cc([N+](=O)[O-])cn2)c2ccccc2n1	8
85	C[n+]1cnc(-c2ccccc2)cc1-c1ccccc1	7
86	O=C(NCCc1cccs1)c1cccs1	8
87	O=C(c1ccc(-c2ccccc2)cc1)N1CCN(c2nc3ccccc3o2)CC1	5
88	COc1ccc(NC(=O)COC(=O)c2ccc(Cl)c(S(N)(=O)=O)c2)c([N+](=O)[O-])c1	7
89	Cc1nc2ccccc2n1CCc1ccccc1	19
90	COCc1ccc(CN2CCCC(CO)(Cc3ccccc3C)C2)o1 (stereo unspecified)	21

# Part of the list above, field by field.
84	Cc1cc(CNC(=O)Cn2cc([N+](=O)[O-])cn2)c2ccccc2n1
- Calb biofilm kill = 8
85	C[n+]1cnc(-c2ccccc2)cc1-c1ccccc1
- Calb biofilm kill = 7
86	O=C(NCCc1cccs1)c1cccs1
- Calb biofilm kill = 8
87	O=C(c1ccc(-c2ccccc2)cc1)N1CCN(c2nc3ccccc3o2)CC1
- Calb biofilm kill = 5

# (next part)
entry	molecule	Calb biofilm kill
91	COc1ccccc1C1CCN(Cc2cccc([N+](=O)[O-])c2)CC1	1
92	CN1CCN(C(=S)SCc2nc(N)nc(Nc3ccc(F)cc3)n2)CC1	-5
93	O=C1NC(=O)/C(=C/c2ccccn2)S1	31
94	COCCn1c(SCC(=O)Nc2ccc(F)cc2)nc2c(oc3ccccc32)c1=O	10
95	CC1=NN(c2ccccc2)C(=O)/C1=C\c1ccc(Br)s1	11
96	Cc1ccc(S(=O)(=O)CCC(=O)OCn2nnc3ccccc3c2=O)cc1	17
97	O=[N+]([O-])c1cccc(S(=O)(=O)NCCc2cn3ccccc3n2)c1	23
98	Cc1ccc(Sc2ncnc(N)c2[N+](=O)[O-])cc1	3
99	O=C(/C=C/c1cn(-c2ccccc2)nc1-c1cccnc1)N1CCCC1	8
100	O=c1c(Cl)c(NC2CC2)cnn1-c1ccccc1	12
101	O=C(c1ccc(Cl)c([N+](=O)[O-])c1)N1CCN(c2ccccn2)CC1	10
102	CN(C)c1ccc(-n2cccc2)cc1	1
103	COc1cc(C2C(C#N)=C(N)N(c3ccc(F)cc3)C3=C2S(=O)(=O)CC3)ccc1O (stereo unspecified)	13
104	CNC(=O)/C(C#N)=C/c1c(N(Cc2ccccc2)Cc2ccccc2)nc2ccccn2c1=O	13
105	O=C(COc1ccccc1)Nc1ccc(NC(=O)c2ccco2)cc1	2
106	O=C(O)c1ccc(-c2nc3ccccc3s2)o1	15
107	Cc1ccc(/C=C/C(=O)CCC(=O)O)cc1	14
108	CC1=[N+](CC(=O)c2ccccc2)CCn2cccc21	14
109	COC(=O)CC1C(=O)NCCN1C(=O)CSc1nc2cc(Cl)ccc2o1 (stereo unspecified)	-4
110	Cc1ccc(C(=O)NC(=C(Cl)Cl)S(=O)(=O)c2ccccc2)cc1	14
111	N=C1SC(CC(=O)Nc2ccccc2[N+](=O)[O-])C(=O)N1c1ccccc1 (stereo unspecified)	22
112	Cc1ccc(Cl)cc1N1CCN(C(=O)C(=O)N2CCCCC2)CC1	9
113	O=C(O)c1cccc(N2C(=O)C3CC=CCC3C2=O)c1 (stereo unspecified)	11
114	CC1(C)CC(=O)c2c(oc3ccc(NS(=O)(=O)c4ccc(C(=O)O)cc4)cc23)C1	11
115	CC(=O)Nc1ccc(S(=O)(=O)N2CCN(c3cc(C(F)(F)F)ccn3)CC2)cc1	13
116	COc1ccc(OCCCC(=O)NCCc2ccc(OC)c(OC)c2)cc1	8
117	C/C(CCc1ccc2c(c1)OCO2)=N\NC(=O)c1ccccc1Cl	17
118	COc1cccc(C2Nc3cccc4cccc(c34)N2)c1	25
119	O=C(Nc1cccc(-c2csc(Nc3ccc(Cl)cc3)n2)c1)c1cccc(C(F)(F)F)c1	16
120	NC(=O)[C@@H]1CCCCNc2c(F)cc([N+](=O)[O-])cc2C(=O)N[C@@H](CC(=O)O)C(=O)N[C@@H](CCC(=O)O)C(=O)N1	20
121	COc1ccc(/C=C/C(=O)OCC(=O)Nc2cc(C(F)(F)F)ccc2Cl)cc1	-6
122	COc1ccccc1NC(=S)N(Cc1ccccc1)Cc1cccs1	14
123	CCO/N=C/C(=O)Nc1ccc(F)cc1F	12
124	C=CCCCCCCCC(=O)OC	10
125	COc1ccc(/C=C/C(=O)OCC(=O)Nc2cc(S(=O)(=O)N(C)C)ccc2Cl)cc1	6
126	COc1ccccc1C(=O)NCC(=O)N/N=C/c1ccncc1	15
127	CC(=O)Nc1ccc(NC(=O)C2CCCCC2C(=O)O)cc1 (stereo unspecified)	12
128	O=c1ccc(Cl)n[nH]1	18
129	Cc1ccc(C(=O)N/N=C2/NC(=O)CC(C(=O)Nc3ccccc3)S2)cc1 (stereo unspecified)	25
130	O=C(Nc1nc2nccc(-c3ccccc3)n2n1)C(Cl)(Cl)Cl	-4
131	Cc1ccc(CNS(=O)(=O)c2cccc3nsnc23)cc1	9
132	CC(COC(=O)c1ccccc1)(COC(=O)c1ccccc1)/[N+]([O-])=C/c1ccccc1	12
133	COc1ccnc(N=CNOCc2ccc(Cl)cc2)c1C#N	14
134	Cc1cc(OCC(C)C)ccc1/C(O)=C1/C(=O)C(=O)N(Cc2cccnc2)C1c1ccncc1 (stereo unspecified)	14
135	O=C1/C(=C/N(C(=O)c2ccco2)c2ccc(Br)cc2)Sc2ccccc21	10
136	COc1ccc(/C=C/c2cc(=O)c3cc(Cl)ccc3o2)cc1	18
137	O=C1NC(=O)/C(=C\c2ccc(O)cc2O)S1	16
138	Cc1cc(C(=O)CCl)c(C)n1CCc1ccc(F)cc1	8

# Not all compounds are listed; rates above refer to the full screens.
